TROY NFkB inh = inhibitors of TROY-dependent NF-kB signaling; Q293 LMP1-TROYcd NF-kB luciferase reporter, 4 h; inhibition, % at 10 µM; actives 0.98% (n = 360,000);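 active = compounds whose plate-normalised and pattern-corrected inhibition of the luciferase reporter signal at the single screening dose is 50% or more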
TRAIL sens C8 = caspase-8 TRAIL sensitization. inhibition (viability loss, TRAIL sensitization), % at 10 µM. actives 1% (n = 360,000). NB7+C8 cells + TRAIL, ATPlite viability luminescence;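 active = compounds causing at least 50% loss of cell viability in the single-dose screen, relative to plate controls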
Numbers without * were called inactive; & = joins results of further samples; ! = repeats disagree. Some of the compounds tested, and most or all hits are left out here.

SMILES	TROY NFkB inh	TRAIL sens C8
CCNC(=O)C1CC(=O)N(CC)C(=Nc2cc(Cl)c(O)c(Cl)c2)S1 (stereo unspecified)	5	4
Cn1c2nc(=O)[nH]c(=O)c-2cc2ccccc21	-9	-13
Cc1nnc(SCC2=C(C(=O)O)N3C(=O)[C@@H](NC(=O)Cn4cnnn4)[C@H]3SC2)s1	-11&-1	15&13
CC(C(=O)O)c1cccc(C(=O)c2ccccc2)c1 (stereo unspecified)	3	14
Cc1sc2ncnc(SCC(=O)N3CCN(C(=O)c4ccco4)CC3)c2c1C	-8	-2
O=S(=O)(c1ccc2nc(SCc3cccc(Cl)c3)[nH]c2c1)N1CCOCC1	4	-1
CC1(C)[C@H](C(=O)O)N2C(=O)C[C@H]2S1(=O)=O	11	-9
O=C(O)C1=C[C@@H](O)[C@@H](O)[C@H](O)C1	-7	-14
Cn1ncc(Br)c1C(=O)O	-21	1
CCOC(=O)C1=C(COCCN)NC(C)=C(C(=O)OC)C1c1ccccc1Cl (stereo unspecified)	66*!	-3&0&-3

Random excerpt: 5 compounds from above
SMILES	TROY NFkB inh	TRAIL sens C8
O=S(=O)(c1ccc2nc(SCc3cccc(Cl)c3)[nH]c2c1)N1CCOCC1	4	-1
Cc1nnc(SCC2=C(C(=O)O)N3C(=O)[C@@H](NC(=O)Cn4cnnn4)[C@H]3SC2)s1	-11&-1	15&13
Cc1sc2ncnc(SCC(=O)N3CCN(C(=O)c4ccco4)CC3)c2c1C	-8	-2
CC(C(=O)O)c1cccc(C(=O)c2ccccc2)c1 (stereo unspecified)	3	14
CC1(C)[C@H](C(=O)O)N2C(=O)C[C@H]2S1(=O)=O	11	-9
